CBX7 AlphaScr – blocks human CBX7 binding to H3K27me3 peptide. O95931. AlphaScreen His6-CBX7 / biotin-H3K27me3 peptide binding; active compounds read low. normalised signal (fraction of DMSO) (test concentration not listed). 1.1% of 66,000 active. AID 1224903; in the data active means normalised signal below about 0.5;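 further: 100 nL library stock added to about 20 µL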
Target sequence (O95931 whole entry, looked up): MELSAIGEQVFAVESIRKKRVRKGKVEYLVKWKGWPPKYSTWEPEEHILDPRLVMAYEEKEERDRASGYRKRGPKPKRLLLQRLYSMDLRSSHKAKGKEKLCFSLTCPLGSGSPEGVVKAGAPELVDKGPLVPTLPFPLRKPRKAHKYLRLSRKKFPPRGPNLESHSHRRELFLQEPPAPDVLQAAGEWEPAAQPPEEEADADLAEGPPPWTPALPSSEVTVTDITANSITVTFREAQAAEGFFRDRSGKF
CBX7 AlphaScr z-score – second read-out of CBX7 AlphaScr, no call of its own (marks repeat the call); z-score; measured here: z-score of CBX7 signal; some inactives read as strong as hits; reference of the scale not given here;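 same signal on another scale; lower means less binding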
Active calls of the source: *; & = joins results of further samples. Some of the compounds tested; the hit share may differ from the screen's.

SMILES	CBX7 AlphaScr	CBX7 AlphaScr z-score
CCc1ccc(C2CC(c3cccc(OC)c3OC)n3nnnc3N2)cc1 (stereo not given)	0.93	-2.5
CCOc1ccc(NC(=O)CSc2nnc(-c3c[nH]c4ccccc34)n2CC)cc1	1	0.029
Fc1ccc(CSc2nc3ccncc3n2Cc2cccc(Cl)c2)cc1	0.99	-0.25
Cc1[nH]c2c(C)cccc2c(=O)c1CN1CC2(C)CC1CC(C)(C)C2 (stereo not given)	0.97	-0.75
CCCOc1ccc(-c2ccc(-c3noc(C4CCC(CCC)CC4)n3)cc2)cc1 (stereo not given)	1.2	4
COc1ccccc1Nc1ncc(C(=O)Nc2ccc(C)cc2Br)c2ccccc12	1	0.84
CCC(=O)N1CCc2cc(S(=O)(=O)NCCC(=O)NCc3ccccc3OC)ccc21	1	0.17
Cc1cccc(NC(=O)C(Cc2ccccc2)NS(=O)(=O)c2cccc3cccnc23)c1C (stereo not given)	1.1	0.66
CCC(C(=O)Nc1cccc(OC)c1)n1c(SCc2cc(C)ccc2C)nc2ccncc21 (stereo not given)	0.96	-1.8
Cc1cn(-c2nc(-c3ccccc3)oc2-c2ccccc2)c(=O)nc1Nc1ccccc1	0.8	-2.4
Cc1ccccc1Nc1nnc(-c2ccc(C)c(S(=O)(=O)NC(C)(C)C)c2)c2ccccc12	0.82	-3.4
O=C(c1ccc2c(c1)N(Cc1ccccc1Cl)C(=O)CS2)N1CCC2(CC1)OCCO2	0.94	-1.3
Cc1onc(-c2ccccc2Cl)c1-c1nc(Cc2ccccc2)no1	0.83	-1.9
O=C1N(CCc2ccccc2)c2ccc(Cl)cc2C1(O)c1c[nH]c2ccccc12 (stereo not given)	0.81	-5.1
NC(=O)c1c(NC(=O)c2cncc(Br)c2)sc2c1CCCC2	1	0.34
O=C(NCc1cccs1)C1(S(=O)(=O)c2ccc(Cl)cc2)CC1	1	0.49
CCC(CC)c1nnc(NC(=O)c2c(-c3ccccc3)noc2C)s1	1.2	2
O=c1oc2ccc3ccccc3c2cc1-c1nnc(-c2ccccc2Br)o1	0.94	-0.68
CCCc1cc(C(=O)Nc2cc(C(F)(F)F)ccc2Cl)no1	1.2	4.5
CCOc1ccc2nc(N3CCC(C(=O)NC(C)C)CC3)sc2c1	1.1	2.1
COc1ccc(OC)c(NC(=O)CC2Oc3ccccc3NC2=O)c1 (stereo not given)	0.98	-0.41
O=C(NC1CCN(Cc2ccccc2)CC1)c1cc2c(s1)-c1ccccc1OC2	1.3	6.7
COc1cccc(NC(=O)C2CCN(S(=O)(=O)c3c(C)noc3/C=C/c3cccs3)CC2)c1	0.91	-0.18
CCOC(=O)C1CCN(C(=O)c2cnn3c(C)c(Cc4ccc(C)cc4)c(C)nc23)CC1	0.93	-1.7
COc1ccc(NC(=O)Cn2cc(S(=O)(=O)c3ccccc3)c(=O)c3cc(C)ccc32)cc1OC	0.98	-0.68
Cc1nccc2[nH]c(=O)c(C(=O)NC3CCCC(C)C3C)cc12 (stereo not given)	0.96	-0.26
COc1ccc(-c2nnc(-c3cc4ccccc4oc3=O)o2)cc1	0.86	-1.6
CCC(C(=O)NCCc1cc2cc(C)c(C)cc2[nH]c1=O)c1ccccc1 (stereo not given)	1	0.42
CCOC(=O)c1c(C)n(-c2ccc(Br)cc2)c2ccc(OC)cc12	0.89	-1.6
CC(C)n1c(NCc2cc(Cl)ccc2O)nc2ccccc21	1.1	0.33
Cc1ccnc(-n2c(CCN3C(=O)c4ccccc4C3=O)nc3ccccc3c2=O)c1	0.95	-1.1
Cc1noc(/C=C/c2cccs2)c1S(=O)(=O)N1CCC(C(=O)NCc2ccc(F)cc2)CC1	0.99	-0.35
Cc1nccc2[nH]c(=O)c(C(=O)NCc3cccnc3)cc12	1.3	1.5
O=S(=O)(NCc1ccccc1Cl)c1cnc[nH]1	1.2	2.5
Cc1cc(C)c(C#N)c(Nc2ccc(Oc3ccccc3)cc2)n1	1.6	5.9
O=C1CCC(c2ccccc2)(C2CCN(Cc3ccccc3)CC2)C(=O)N1 (stereo not given)	1	0.02
O=C(NCCCN=C1NS(=O)(=O)c2ccccc21)c1cccc2ccccc12	1.1	1.7
Cc1cccc(-n2nc3c(c2NC(=O)C(C)C)CSC3)c1C	0.94	-1.8
Cc1c(Cl)cccc1NC(=O)c1cc(C(C)C)on1	1.1	1.3
COc1cccc(NC(=O)c2cnc3scc(C)n3c2=O)c1	1	1.1
CCOC(=O)N1CCC(NC(=O)c2nc(-c3ccc(OC)cc3)oc2C)CC1	0.99	-0.2
CCCn1c(CCNC(=O)c2ccccc2)nc2ccccc21	0.98	-0.31
CC(=O)NCCc1nc2ccccc2n1CCCCOc1ccccc1	0.99	-0.31
COc1ccc(NC(=O)CSc2nnc(CNC(=O)c3ccccc3F)o2)cc1	1	0.45
Nc1c(-c2ccccc2)nc2ccccn12	1	0.44
O=C(NCc1cccnc1)c1ccc2c(c1)ncn2-c1ccc(F)cc1F	0.96	-0.91
O=C(c1cc2c(s1)-c1ccccc1OC2)N1CCCc2ccccc21	0.9	-4.7
COc1cccc(NC(=O)CNC(=O)c2nn(-c3ccc(OC)c(OC)c3)c(=O)c3ccccc23)c1	0.84	-3.2
Fc1ccc(-c2nc(-c3ccccc3Cl)no2)cc1	1.1	4.1
Cc1cccc(NC(=O)C2CCCN(S(=O)(=O)c3cccc4cccnc34)C2)c1C (stereo not given)	0.8	-2.1
Cc1cccc(-c2nc(CN3CCCC(C(=O)NC4CCCC(C)C4C)C3)c(C)o2)c1 (stereo not given)	0.99	-0.32
CCOC(=O)c1cnc2ccc(Cl)cc2c1NCCN(C)C	0.97	-1.2
CCN(Cc1ccccc1)C(=O)c1oc2ccc(S(=O)(=O)N(CC)CC)cc2c1C	1	0.58
Cc1oc(-c2cccs2)nc1CN1CCCC(C(=O)NC2CCCCC2)C1 (stereo not given)	0.83	-0.7
Cc1ccc2c(c1)C(c1ccc(F)cc1)N(C(=O)c1ccc(C(C)(C)C)cc1)CC(=O)N2 (stereo not given)	0.81	-3.8
COc1ccccc1CNC(=O)CCN1C(=O)COc2ccccc21	0.99	-0.41
Cc1ccc(NC2=NC3CS(=O)(=O)CC3S2)cc1 (stereo not given)	0.94	-1.4
O=C(Nc1ccc2oc(-c3ccc(Cl)cc3)nc2c1)c1ccc2c(c1)OCCO2	1	-0.054
CCN(CC)CCNc1ccc2nnc(-c3ccc(F)cc3)n2n1	1.1	2
CCc1ccc2[nH]cc(S(=O)(=O)c3ccc(F)cc3)c(=O)c2c1	1	1.5
(further entries)
SMILES	CBX7 AlphaScr	CBX7 AlphaScr z-score
Cc1cc(NC(=O)C2(c3ccccc3)CCCC2)no1	0.88	-1.3
Fc1ccccc1-c1nc(Nc2cccc(C(F)(F)F)c2)c2ccccc2n1	1.2	0.26
Cc1cc(F)ccc1NC(=O)C1CCN(C(=O)c2cnn(-c3ccccc3)c2-n2cccc2)CC1	1.3	2.2
CCn1cnc2cc(NCc3cccc(OC)c3)ccc21	0.91	-2.2
CC(NC(=O)CN1C(=O)CSc2ncccc21)c1ccccc1 (stereo not given)	1	0.48
Cc1sc(NC(=O)c2ccncc2)nc1-c1ccccc1	0.94&0.99	-0.65&-0.23
Cc1cc(C)cc(Nc2cc(C(=O)NCCCOC(C)C)c3ccccc3n2)c1	1.1	3
Cc1ccc(NC(=O)CSc2nnc(CNC(=O)c3cccs3)o2)cc1Cl	0.98	-0.81
COc1ccccc1N1CCN(c2cc(=O)n(Cc3ccc(F)cc3)c(=O)[nH]2)CC1	1	0.6
Cc1cc(NC(=O)CC2Oc3ccccc3NC2=O)ccc1Br (stereo not given)	1.3	1.7
COc1ccc(OCCOCCn2c(-c3ccc(Cl)cc3)nc3ccccc3c2=O)cc1	1.2	2.9
CCOc1ccc(N2C(=O)c3ccccc3C2Nc2ccc(C)cc2)cc1 (stereo not given)	0.92	-2.8
COCCCNC(=O)c1cc(-c2cccnc2)nc2ccc(S(=O)(=O)N3CCC(C)CC3)cc12	1.1	2.7
CCOc1ccc(OCC)c(NC(=O)C2CCCN(S(=O)(=O)c3c(C)noc3C)C2)c1 (stereo not given)	0.94	-0.47
Cc1ccc(OCCn2c(C3CC(=O)N(c4cccc(C)c4C)C3)nc3ccccc32)cc1 (stereo not given)	0.79	-1.3
Cn1c(SCC(=O)NC2CCCC2)nnc1-c1c[nH]c2ccccc12	1.1	1.8
COc1cccc(CNC(=O)Cn2ncc3c2-c2cc(C)ccc2OC3)c1	0.89	-2
COc1ccccc1CN1CCN(Cc2cccnc2)CC1	1.1	2.3
COc1cc(NC(=O)c2cc(-c3ccc4c(c3)OCO4)on2)c(OC)cc1Cl	1.3	2.4
COCCCNC(=O)c1nc(-c2cccc(Cl)c2)oc1C	1	1.3
COc1ccc(C)cc1-n1cnc2cc(C(=O)NCc3ccccc3Cl)ccc21	0.78	-2.6
COc1ccc(Nc2cc(C(=O)NCCN(C)Cc3ccccc3)c3ccccc3n2)cc1	0.93	-0.073
Brc1ccc2nc(SCCOc3ccccc3)[nH]c2c1	1	0.48
Cc1ccc(S(=O)(=O)N2CC=C(C(=O)NC(C)CCc3ccccc3)CC2)cc1 (stereo not given)	1	0.51
CCN(C(=O)CCc1nc(-c2ccccc2F)no1)c1ccc(F)cc1	0.82	-2.7
Cc1nnc(Sc2cc(C(=O)NCc3ccccc3Cl)c3ccccc3n2)s1	1	0.17
CCOc1ccc(CCNC(=O)CCNC(=O)Cn2ccc3ccccc3c2=O)cc1OCC	1.1	1.5
Cc1ccnc(NC(=O)c2cccc(S(=O)(=O)N3CCCCCC3)c2)c1	0.87	-2
CC(=O)N1CCc2cc(S(=O)(=O)NCCC(=O)Nc3ccc(F)c(F)c3)ccc21	0.88	-1.5
Cc1c2c(nc3c(C(=O)NCc4ccccc4)cnn13)CCCC2	1	0.69
COc1cc2c(cc1OC)C(c1cccc(Oc3ccccc3)c1)CC(=O)N2 (stereo not given)	1	0.013
COc1ccc(-c2noc(N(C)CC(=O)N3CCN(c4ccccc4OC)CC3)n2)cc1	1	0.42
Cc1ccc(-c2ccc(=O)n(CC(=O)N3CCN(c4ccccc4)CC3)n2)cc1	0.96	-1.2
CC(C)COc1ccc(C(=O)N(Cc2ccc(Cl)cc2)C2CCS(=O)(=O)C2)cc1 (stereo not given)	0.9	-1.3
O=C(NCc1ccc2c(c1)OCO2)[C@H](CSCc1ccccc1)N1Cc2ccccc2C1=O	0.84	-3.6
Cc1c(Cl)cccc1NS(=O)(=O)c1ccc2[nH]cc(C(=O)N3CCCCCC3)c(=O)c2c1	0.86	-2.6
Cc1ccc(S(=O)(=O)CCc2nc3ccccc3n2CCC#N)cc1	1	0.011
CCC1=Nc2cc(C(=O)NCCc3ccc(Cl)cc3)ccc2Sc2ccc(Br)cc21	0.97	-1.4
c1nc(Oc2ccc3c4c2CCCN4CCC3)c2c3c(sc2n1)CCCC3	0.27*	-7*
CCc1ccccc1Nc1nc(-c2c(C)nc3sccn23)cs1	0.8	-7.2
COCc1cc(=O)[nH]c(Nc2nc(C)c3ccc(C)cc3n2)n1	0.92	-1.3
O=C(CCN1C(=O)COc2ccccc21)N1CCOCC1	1.1	3.5
CCOc1ccc(-c2cc(C(=O)N3CCN(C)CC3)c3ccccc3n2)cc1	1	0.3
COc1ccc2cc(CCNC(=O)c3cccc(C(F)(F)F)c3)c(=O)[nH]c2c1	1	0.64
O=C(Nc1cccc(Br)c1)c1cnc2ccccn2c1=O	0.97	-0.41
COc1cccc(C(=O)Nc2c(-c3ccc(F)cc3)nc3cc(C)ccn23)c1	0.94	-1.8
CCOc1cc2[nH]c(=O)n(CCC(=O)N3CCN(c4ccccc4)CC3)c(=O)c2cc1OCC	0.99	-0.26
O=C(NCCN1CCOCC1)c1c[nH]c2ccc(S(=O)(=O)N3CCOCC3)cc2c1=O	0.98	-0.46
COc1ccc(N2C(=O)CC(c3cn(C)c4ccccc34)C2=O)cc1 (stereo not given)	1.1	1.1
Cc1ccc(-c2noc(CCC(=O)Nc3ccc(C)cc3Br)n2)cc1	0.89	-1.1
Cc1cccc(N2CCN(CCNC(=O)c3csc4c3CCCCC4)CC2)c1C	0.96	-1.4
Cc1ccc(NC2c3ccccc3C(=O)N2Cc2ccccc2Cl)c(C)c1 (stereo not given)	0.91	-0.24

High-throughput results deposited in PubChem BioAssay by several laboratories.
